Mtb growth: Confirmatory growth inhibition assay against Mycobacterium tuberculosis H37Rv, potency (AID 1949). actives 1.6% (n = 100,000). most inactive calls were filed without a number and no value below 0 was filed. inhibition, % at 10 µg/mL; hits with a dose series show IC50 in µg/mL;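 active means confirmed in a dose series; inconclusive means about 50% or more but not retested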;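 further: bacteria grown 7 days with compound before Alamar blue readout; 0% = untreated bacteria and 100% = reference antibiotic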
The depositor's hits bear a star; i = inactive; ? = inconclusive. An excerpt; rates above refer to the full screens.

O=C(NC1CC1c1ccccc1)C12CC3CC(CC(C3)C1)C2 (stereo not given)
  Mtb growth: 15µg/mL*
CCOCCc1nnc(NC(=O)C2CCCCC2)s1
  Mtb growth: i
C#Cc1cc(C#C)c(OCCC)cc1OCCC
  Mtb growth: 3%
O=C(c1cccs1)N1CCN(C2CCCCC2)CC1
  Mtb growth: i
Cc1ccc2c(C)nc(SC3CC(=O)N(c4cccc5ccccc45)C3=O)nc2c1 (stereo not given)
  Mtb growth: i
Cc1nc(-c2ccc(NC(=O)c3ccccc3F)cc2)cs1
  Mtb growth: i
FC(F)(F)c1nnc(N2CCN(C3c4ccccc4-c4ccccc43)CC2)s1
  Mtb growth: 0%
COC(=O)c1cccc(NC(=O)CSc2nnc(C(C)NC(=O)c3ccccc3Br)n2C)c1 (stereo not given)
  Mtb growth: i
CCc1nc(SCC(=O)Nc2ccccc2C(=O)OC)n[nH]1
  Mtb growth: i
COc1ccc(NC(=O)C(=O)NCc2ccccc2Cl)cc1OC
  Mtb growth: i
Cc1cc(C)cc(NC(=S)N2CCN(C(=O)C3CCCO3)CC2)c1 (stereo not given)
  Mtb growth: i
CC(=O)Nc1ccc2nc(-c3ccco3)[nH]c2c1
  Mtb growth: i
COc1ccc(Cl)cc1S(=O)(=O)n1ccnc1
  Mtb growth: i
Cc1onc(-c2ccccc2)c1C(=O)Nc1ccccc1C(=O)N1CCN(c2ccccc2)CC1
  Mtb growth: i
COc1ccc(-c2cn3c4ccccc4n(CCN4CCCCC4)c3n2)cc1
  Mtb growth: ?
COc1ccc(-c2cc(=O)oc3c(C)c(O)c(CN(C)C)cc23)cc1
  Mtb growth: i
O=C(Nc1ccc(OCc2ccccc2)cc1)c1cc(-c2ccncc2)nc2ccccc12
  Mtb growth: i
Clc1ccc2c(N3CCCC3)ccnc2c1
  Mtb growth: 6%
CCOc1ccccc1C(=O)Nc1ccc(Br)cc1C
  Mtb growth: i
COc1ccc2c(=O)c(-c3ccccc3Cl)c(C(F)(F)F)oc2c1C
  Mtb growth: i
CCCCC(=O)Nc1cccc(NC(=O)c2ccc(COc3ccccc3)cc2)c1
  Mtb growth: 2%
Cc1cc(Br)ccc1OCC(=O)N1CCN(c2ccc([N+](=O)[O-])cc2)CC1
  Mtb growth: i
Cc1nnc(NC(=O)c2oc3cc(C)c(C)cc3c2C)s1
  Mtb growth: i
CC(C)=C1SC(N2CCN(Cc3ccccc3)CC2)=NC1=O
  Mtb growth: i
CC1(C)CC(NC(=O)C(F)(F)F)C(NC(=O)C(F)(F)F)C(C)(C)N1 (stereo not given)
  Mtb growth: 1%

N#Cc1c(-c2ccco2)nc(SCc2ccc(F)cc2)[nH]c1=O
  Mtb growth: i
O=C(C1=C(O)C(=O)N(Cc2ccco2)C1c1cccs1)c1cccs1 (stereo not given)
  Mtb growth: i
CCC(=O)Nc1ccccc1N1CCN(C(=O)CC)CC1
  Mtb growth: i
CC(=O)c1ccc(NC(=O)COc2ccccc2)cc1
  Mtb growth: i
O=C(CCCOc1ccc(Cl)cc1Cl)NNC(=S)NC1CCCC1
  Mtb growth: i
CN(C)CCCn1c(=N)n(CC(O)c2ccc(Br)cc2)c2ccccc21 (stereo not given)
  Mtb growth: i
COc1ccccc1C(=O)N/C(=C/C=C/c1ccccc1)C(=O)NCc1ccccc1
  Mtb growth: 3%
Cc1cccc(-c2nc(Nc3cccc(O)c3)c3ccccc3n2)c1
  Mtb growth: ?
OC1(C#CCCN2CCCCC2)c2ccccc2-c2ccccc21
  Mtb growth: i
CCN1C(=O)c2ccc(C(=O)NC(C)c3ccccc3)cc2C1=O (stereo not given)
  Mtb growth: 1%
CCOC(=O)CCn1ccc(=O)[nH]c1=O
  Mtb growth: i
COc1ccc(NC(=O)c2ccccc2SC)cc1Cl
  Mtb growth: i
Cc1ccc(Cl)c(OCC(O)Cn2cnc3cc(C)c(C)cc32)c1 (stereo not given)
  Mtb growth: 8.1µg/mL*
Fc1ccccc1CSc1nnc(-c2cnccn2)n1Cc1ccco1
  Mtb growth: i
CCOC(=O)c1sc(NC(=S)Nc2ccc3c(c2)CCC3)c(C(=O)OCC)c1C
  Mtb growth: i
CCOC(=O)c1c(NC(=O)c2c(Cl)cccc2Cl)sc(C)c1C
  Mtb growth: i
Cc1n[nH]c(C)c1N1C(=O)c2cccc3cc([N+](=O)[O-])cc(c23)C1=O
  Mtb growth: i
COc1ccc(OCC(=O)N2CCN(C3CCCC3)CC2)cc1
  Mtb growth: 5%
CCC(=O)NC(=S)Nc1ccccc1N1CCN(S(C)(=O)=O)CC1
  Mtb growth: i
O=C(Cn1cnc2scc(-c3ccc(Br)cc3)c2c1=O)N1CCOCC1
  Mtb growth: i
CSc1ccccc1C(=O)Nc1cc(C(F)(F)F)cc(C(F)(F)F)c1
  Mtb growth: i
Cc1ccc(S(=O)(=O)NCC(=O)Nc2cccc(C(F)(F)F)c2)cc1
  Mtb growth: i
O=C(Nc1sc2c(c1C(=O)O)CCC2)c1cccc(Cl)c1
  Mtb growth: 13%
CC(=O)c1ccc(N(C)C)c2c(N(C)C)cccc12
  Mtb growth: i
CCC(Oc1ccccc1)c1nnc(N)s1 (stereo not given)
  Mtb growth: i

4 structures already listed, arranged by SMILES length, low to high.
CCOc1ccccc1C(=O)Nc1ccc(Br)cc1C
  Mtb growth: i
CC(=O)Nc1ccc2nc(-c3ccco3)[nH]c2c1
  Mtb growth: i
Cc1ccc(Cl)c(OCC(O)Cn2cnc3cc(C)c(C)cc32)c1 (stereo not given)
  Mtb growth: 8.1µg/mL*
Cc1ccc(S(=O)(=O)NCC(=O)Nc2cccc(C(F)(F)F)c2)cc1
  Mtb growth: i

(next part)
O=C(CSc1ccc(Cl)cc1)N1CCN(Cc2ccc3c(c2)OCO3)CC1
  Mtb growth: i
COc1ccc(-c2cc(C(F)F)n3ncc(C(=O)N4CC(C)OC(C)C4)c3n2)cc1 (stereo not given)
  Mtb growth: i
CCOc1ccc2nc(SCC(=O)c3ccc(F)cc3)[nH]c2c1
  Mtb growth: i
COc1ccc(S(=O)(=O)NCc2cccc(Oc3ccccc3)c2)cc1
  Mtb growth: 2%
O=c1c2ccccc2ncn1CCCCOc1ccc(Cl)c(Cl)c1
  Mtb growth: i
COc1cccc(C(=O)NCCN2CCN(C(=O)c3cccc(OC)c3)CC2)c1
  Mtb growth: 2%
CC1=C(C(=O)Nc2ccccc2C)C(c2ccccc2F)n2ncnc2N1 (stereo not given)
  Mtb growth: i
COc1cc(C(=O)Nc2ccccc2C(=O)NC23CC4CC(CC(C4)C2)C3)cc(OC)c1OC
  Mtb growth: i
COc1ccccc1Nc1nc(N)nc(CSc2nnnn2-c2ccccc2)n1
  Mtb growth: i
CC1CCc2nc(NC(=O)CSc3ncn[nH]3)sc2C1 (stereo not given)
  Mtb growth: i
CN1CCN(C(=O)CN(Cc2ccc(F)cc2)S(=O)(=O)c2ccc(Cl)cc2)CC1
  Mtb growth: i
c1ccc(-c2cc3c(Nc4ccc5c(c4)OCO5)ncnc3s2)cc1
  Mtb growth: i
COc1ccc(N(CC(=O)Nc2ccc(S(=O)(=O)N3CCCC3)cc2)S(=O)(=O)c2ccccc2)cc1OC
  Mtb growth: 34%
CN(c1ccccc1C(=O)Nc1ccc(S(=O)(=O)N2CCOCC2)cc1)S(C)(=O)=O
  Mtb growth: i
O=C(COC(=O)c1ccc(NC(=O)c2ccc(Br)cc2)cc1)c1cccc([N+](=O)[O-])c1
  Mtb growth: i
CC(C)CC(=O)NC(=S)Nc1cccc(S(=O)(=O)N2CCCCCC2)c1
  Mtb growth: 6%
O=C(CC1(O)C(=O)N(CCc2ccccc2)c2ccc(Cl)cc21)c1ccc2c(c1)OCCO2 (stereo not given)
  Mtb growth: 7.7µg/mL*
CS(=O)(=O)Nc1ccc2c(c1)nc1n2CCN(Cc2ccccc2)C1
  Mtb growth: 6%
O=c1c2ccccc2[nH]c(=S)n1CCCN1CCN(C2CCCCC2)CC1
  Mtb growth: i
O=C(Nc1ccc(Oc2ccc3c(c2)C(=O)N(CC2CCCO2)C3=O)cc1)C1CC1 (stereo not given)
  Mtb growth: i
COc1ccc(S(=O)(=O)NC2CC3CCC2C3)cc1Cl (stereo not given)
  Mtb growth: 1%
CCN(CC)c1ccc(NC(=S)Nc2ccc(F)cc2)cc1
  Mtb growth: 9%
COc1cc(C=O)c(Cl)cc1OCC(=O)Nc1ccccc1
  Mtb growth: i
COc1ccccc1CNC(=O)Cc1ccc(C)cc1
  Mtb growth: 0%
Cc1ccc2cccc(S(=O)(=O)N3CCC(C(=O)O)CC3)c2n1
  Mtb growth: i

CCOC(=O)N1CCN(Cc2nc(-c3ccc(Cl)cc3)no2)CC1
  Mtb growth: 16%
O=C(NC1CCCc2ccccc21)c1cc(-c2cccnc2)nc2ccc(Cl)cc12 (stereo not given)
  Mtb growth: i
CCCCC(=O)N(c1ccccc1)c1nc2c(s1)COc1ccccc1-2
  Mtb growth: 4%
COc1cc(/C=C2/C(=O)NC(=O)N(c3ccc(Cl)cc3)C2=O)cc(OC)c1O
  Mtb growth: i
CCOc1ccc(Cl)cc1CSc1n[nH]c(-c2ccccc2OCC)n1
  Mtb growth: 33%
CCOc1cc(CNCCO)ccc1OCc1ccc(Cl)cc1Cl
  Mtb growth: 6µg/mL*
CC(=O)N(c1ccccc1)C1C=CS(=O)(=O)C1 (stereo not given)
  Mtb growth: i
COc1ccc(NC(=O)c2ccc(OCC(=O)Nc3ccccc3F)cc2)cc1Cl
  Mtb growth: 1%
COc1ccc(Cl)cc1N(CC(=O)Nc1ccc(C)c(C)c1)S(C)(=O)=O
  Mtb growth: i
O=C(CSc1ncccn1)Nc1nccs1
  Mtb growth: 4%
CS(=O)(=O)N(CC(=O)NC1CC1)c1cccc(F)c1
  Mtb growth: i
S=C(Nc1ccc(Cl)cc1)NC1CC1
  Mtb growth: i
COc1ccc(NC(=O)C2CC(=O)NC(=Nc3ccccc3)S2)cc1 (stereo not given)
  Mtb growth: i
Cc1ccc(OC(F)F)c(NC(=S)NC2CCCC2)c1
  Mtb growth: i
CC(C)C(=O)Nc1cccc([N+](=O)[O-])c1
  Mtb growth: i
COc1ccc(S(=O)(=O)N(C)CC(=O)Nc2ccc(I)cc2)cc1
  Mtb growth: i
COC(=O)C1CCN(C(=O)C(Sc2ccccc2)c2ccccc2)CC1 (stereo not given)
  Mtb growth: i
O=S(=O)(c1cccc(-c2nc3ccccc3s2)c1)N1CCCC1
  Mtb growth: i
COc1cc(OC)c(OC)cc1CN1CCN(C(=O)c2ccccc2)CC1
  Mtb growth: i
Brc1ccc(CSc2nnc(Cc3c[nH]c4ccccc34)o2)cc1
  Mtb growth: 5%
O=C(Nc1cccc(F)c1)N1CCN(C(c2ccccc2)c2ccccc2)CC1
  Mtb growth: i
CCN(CC)c1ccc2cc(C(=O)Nc3cccc(C)c3)c(=O)oc2c1
  Mtb growth: 3%
CSc1nc(C)cc(OCC(=O)NCCOc2ccc(C)cc2)n1
  Mtb growth: i
CC(C)(C)c1ccc(-c2n[nH]c(=S)n2Cc2ccco2)cc1
  Mtb growth: 0%
COC(=O)c1c(NC(=O)c2ccccc2[N+](=O)[O-])sc2c1CCC2
  Mtb growth: i

Cc1ccc(C2=NN(C(=O)C3CCCO3)C(c3ccccc3F)C2)cc1 (stereo not given)
  Mtb growth: 8%
COCC(C)NCc1cc(C)c(OC)cc1C (stereo not given)
  Mtb growth: 0%
Cc1cc(-c2c(C)n([O-])c(C)c(C)[n+]2=O)ccc1F
  Mtb growth: i
CCC(Sc1nnc(C)s1)C(=O)Nc1nccs1 (stereo not given)
  Mtb growth: i
CCC(C)NCCOc1ccccc1C(C)CC (stereo not given)
  Mtb growth: i
COC(=O)C1CCN(C(=O)C(C)Oc2ccc(Cl)cc2Cl)CC1 (stereo not given)
  Mtb growth: i
Cc1nc(SCc2ccccc2)[nH]c(=O)c1Oc1ccc(=O)n(C)n1
  Mtb growth: i
COc1ccc(NC(=O)c2ccccc2NC(=O)c2sc3ccccc3c2Cl)cc1
  Mtb growth: i
CCC(C(=O)Nc1nc2ccc(S(C)(=O)=O)cc2s1)c1ccccc1 (stereo not given)
  Mtb growth: 28%
O=C(Nc1cc(Cl)c(O)c(Cl)c1)c1ccccc1I
  Mtb growth: 2%
COc1ccc(-c2nnc(SCC(N)=O)n2-c2ccccc2)cc1OC
  Mtb growth: i
Cc1c(Cl)cccc1N(CC(=O)N1CCN(c2ccccc2)CC1)S(C)(=O)=O
  Mtb growth: i
Cc1ccccc1C(=O)N1CCN(c2ccc(NC(=O)c3ccccc3[N+](=O)[O-])cc2)CC1
  Mtb growth: i
Cc1ccc(C2(CC#N)CCOC(C(C)C)C2)cc1 (stereo not given)
  Mtb growth: i
CCOC(=O)c1c(NC(=O)CN2CCOCC2)sc(C)c1C
  Mtb growth: i
Cc1ccc2nc(/C(C#N)=C/c3ccccc3)[nH]c2c1
  Mtb growth: i
O=C(O)c1cccc(NC(=O)c2ccc(CN3C(=O)c4ccccc4C3=O)cc2)c1
  Mtb growth: i
O=C1Nc2cc(C(F)(F)F)ccc2N2CCCC12 (stereo not given)
  Mtb growth: 41%
Cc1cccc(-c2cc(C(=O)Nc3ccccc3[N+](=O)[O-])c3ccccc3n2)c1
  Mtb growth: 3%
Cc1cc(C)cc(NC(=O)CN2CCN(C(=O)c3ccco3)CC2)c1
  Mtb growth: 0%
COC(=O)Cc1c(C)c2ccc(OCC(=O)c3ccc(F)cc3)cc2oc1=O
  Mtb growth: i
Cc1ccc(C(C)C)c(OCCN2CCNCC2)c1
  Mtb growth: 1%
Cc1cc(NC(=O)c2ccc(Br)c(S(=O)(=O)N3CCCC3)c2)no1
  Mtb growth: i
CCc1cccc(C)c1NC(=O)CSc1nnc(-c2ccc(C)cc2)n1C
  Mtb growth: i
CCc1cccc(C)c1NC(=O)c1ccc(NC(C)=O)cc1
  Mtb growth: i

CCCCNCCOCCOc1c(C)cc(Cl)cc1C
  Mtb growth: 33%
CC1=C(C(=O)Nc2ccc(C)cc2C)C(c2cccc3ccccc23)NC(=O)N1 (stereo not given)
  Mtb growth: i
CCC(=O)N1N=C(c2ccc(C)o2)CC1c1ccc(Br)cc1 (stereo not given)
  Mtb growth: 4%
O=C(COc1ccc(Cl)cc1Br)Nc1ccncc1
  Mtb growth: 21%
O=C(Nc1ccon1)c1csc2ccccc12
  Mtb growth: i
Cc1c(C(=O)N2CCCCC2)oc2c1C(=O)CC(C)(C)C2
  Mtb growth: 1%

Screens as filed in PubChem BioAssay.
